Bioassay records from PubChem.
VDR inhibitor = vitamin D3 receptor (human) inhibition | P11473 | VDR-SRC2-3 peptide fluorescence polarization, 2 h | Potency, µM, inactives show max response, negative = inhibition, usual class: inhibitors | 400,000 tested, 0.93% active | AID 504847; active means well fitted inhibition curve with a large enough effect; inconclusive means small, poorly fitted or top-dose-only effect, or another doubt; inactive means no such curve, though single readings can be large or run the other way; further: series mostly up to about 120 µM
Target sequence (P11473 whole entry, looked up): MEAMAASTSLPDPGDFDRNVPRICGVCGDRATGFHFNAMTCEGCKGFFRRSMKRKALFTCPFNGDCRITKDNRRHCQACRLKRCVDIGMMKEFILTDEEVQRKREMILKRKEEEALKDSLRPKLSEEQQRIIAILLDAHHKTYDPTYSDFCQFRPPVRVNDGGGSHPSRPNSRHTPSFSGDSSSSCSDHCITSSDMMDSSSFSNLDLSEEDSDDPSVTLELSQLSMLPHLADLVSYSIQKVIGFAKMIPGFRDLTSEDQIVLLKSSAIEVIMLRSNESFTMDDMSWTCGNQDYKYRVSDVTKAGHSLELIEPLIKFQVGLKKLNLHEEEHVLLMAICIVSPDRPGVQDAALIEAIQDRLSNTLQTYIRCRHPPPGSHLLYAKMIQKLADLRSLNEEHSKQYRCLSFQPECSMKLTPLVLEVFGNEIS
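Fluorescence polarization assay of small-molecule disruption of VDR binding to coregulator peptide SRC2-3. Compounds and controls pin-transferred, then read after 2 h incubation at ambient room temperature.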
The depositor's hits bear a star; ? = inconclusive; & = joins results of further samples; [ ] = dose if it differs, or a comment. On the % scale 0 is the no-effect control and ±100 the full control effect; potency means the concentration at half of the fitted maximal effect.

SMILES	VDR inhibitor
CCC(C)NC(=O)COC(=O)c1cccnc1Nc1ccccc1F (centres undefined)	-17%
Cc1ccc(CN(Cc2cccn2-c2nnc(N3CCCC3=O)s2)C(=O)Nc2ccccc2Cl)cc1	8%
Cc1ccc(/C=c2/sc3n(c2=O)CCCN=3)o1	-13%
O=C(NNC(=O)c1ccc(Cn2cccn2)o1)NC12CC3CC(CC(C3)C1)C2	17%
CC(C)CC1=NN(C(=O)c2cccnc2)C(O)(C(F)(F)F)C1 (centres undefined)	-2%
O=C(COC(=O)CNC(=O)c1ccccc1)Nc1ccc2c(c1)OCO2	-8%
O=S(=O)(c1cccc2ccccc12)N1CCN(c2ccc(Cl)c(Cl)c2)CC1	-5%
Cc1ccc(CNCC(=O)Nc2cccc(S(=O)(=O)NC3=NCCCCC3)c2)cc1	-16%
CC(=O)c1ccc(N2CCN(C(=O)C(=O)c3cn(CC(=O)N4CCCCCC4)c4ccccc34)CC2)cc1	-23%
CCCc1[nH]nc2c1C(c1ccc(OC)cc1OC)C(C#N)=C(N)O2 (centres undefined)	?
CCOC(=O)C1CCCN(C(=S)NC2CCCCC2)C1 (centres undefined)	-15%
Cc1cc(C)cc(NC(=O)C2CC(=O)n3ncnc3N2)c1 (centres undefined)	11%
S=C(Nc1ccc(Oc2ccccc2)cc1)NC1CCCCCC1	2%
CC1CC(OC(=O)C2CCN(S(=O)(=O)c3ccc(F)cc3)CC2)C(=O)O1 (centres undefined)	3%
CCOc1ccc(-n2nc3cc(C)c(NC(=O)c4cc(OCC)c(OCC)c(OCC)c4)cc3n2)cc1	-7%
Nn1c(Cc2cccc3ccccc23)nnc1SCc1ccc(Cl)c(Cl)c1	14%
CCn1cc2c(n1)-c1c(oc(C(=O)Nc3cccc(C)c3C)c1C)CC2	-7%
CCOC(=O)C1=C(C)NC(=O)NC1c1ccc2c(c1)OCO2 (centres undefined)	9%
CC(Oc1ccc(F)cc1)C(=O)Nc1nc(-c2ccccn2)cs1 (centres undefined)	-15%
c1ccc(COC[C@H]2CO2)cc1	15%
COc1ccc(Cl)cc1NC(=O)c1noc2c1CCCC2	0%
CCCCn1c(N)c(N(CC(C)C)C(=O)CSCc2ccc(Cl)c(Cl)c2)c(=O)[nH]c1=O	7%
CC1(C)CC(=O)C2=C(C1)NC(=O)NC2c1ccccc1 (centres undefined)	1%
CCOC(=O)/C(=C/c1ccco1)NC(=O)c1ccc(Br)o1	12%
CCN(CC)c1ccc(C=C2C(=O)OC3(CCCC3)OC2=O)cc1	-12%
C(=N\c1nc2ccccc2n1CCN1CCOCC1)/c1cccs1	0%
COc1ccc(OCCNS(=O)(=O)c2ccc3oc4ccccc4c3c2)cc1	-13%
COc1ccc(N(CC(=O)O)S(=O)(=O)c2ccc(OC)c(OC)c2)cc1	-6%
CN(C(=O)Cn1nnc(-c2ccc(F)cc2)n1)C1CCS(=O)(=O)C1 (centres undefined)	-7%
c1ccc(CN2CCN(c3ncnc4c3cnn4-c3ccccc3)CC2)cc1	3%
CC1(C)Cc2cccc(OCC(=O)N3CCN(c4cccc(Cl)c4)CC3)c2O1	-20%
CCOCC(=O)N1CCN(c2ccccc2OC)CC1	8%
Cc1ccc(C)c(Cn2c(=O)n(C)c(=O)c3sccc32)c1	8%
C=C[C@@H]1c2ccccc2N(S(=O)(=O)c2ccc(C)cc2)[C@H](c2ccccc2C(F)(F)F)C1(C#N)C#N	-7%
O=C(Nc1ccc(O)c2c(=O)cc(-c3ccccc3Cl)oc12)c1cccc(Cl)c1	-9%&-18%
CN(C)c1ccc(NC2=C([N+](=O)[O-])CS(=O)(=O)C2)cc1	0%
O=C(Cc1cccc2ccccc12)N/N=C/c1ccc(O)c([N+](=O)[O-])c1	-11%
COC(=O)c1sc(S(=O)(=O)N2CCCCC2C)c(C(=O)OC)c1C (centres undefined)	-2%
CCCS(=O)(=O)n1nc(-c2ccc(OC)cc2)cc1N	?
Cc1ccc2[nH]c(CN3CCN(C)C(CCO)C3)c(C)c2c1 (centres undefined)	-5%
COc1ccc(C(=O)NC2CC3CCCC(C2)N3Cc2ccccc2)c(OC)c1 (centres undefined)	10%
C=CCNC(=S)/N=c1\sccn1C	3%
Oc1csc(Cc2nc(-c3ccc4ccccc4c3)cs2)n1	2%
CC(C)(C)NC(=O)c1cc(F)c(F)cc1Cl	-1%
COCCNCc1nc2sc(C)c(-c3ccccc3)c2c(=O)[nH]1	24%
COc1ccc(/C(C)=N/NS(=O)(=O)c2cc(C)ccc2C)c(OC)c1	-8%
CCOc1ccc(NC(=O)CN(C)C(=O)c2ccc(N3CCOCC3)c([N+](=O)[O-])c2)cc1OCC	-22%
CCC(=O)Nc1ccc2nc3c(=O)n(C)c(=O)n(C)c3nc2c1	11%
CCN1C(=O)/C(=C\N2CCCCCC2)SC1=S	-14%
Cc1cc(NC(=O)c2cc(C(C)(C)C)oc2C)no1	?
COc1ccc2c(CC(=O)Nc3nnc(C4CC4)s3)coc2c1	-2%
O=C(N/N=C/c1ccco1)c1ccccn1	2%
COc1ccc(/C=N/NC(=O)c2c([N+](=O)[O-])c(C)nn2C)cc1	0%
COc1cccc(Nc2nc3ccc(OC)cc3s2)c1	-9%
C=CCNc1nc(C(=O)OCC(=O)Nc2cc(S(C)(=O)=O)ccc2Cl)cs1	1%
O=C(NCc1nnc2c(C(F)(F)F)cc(Cl)cn12)c1ccc(Br)o1	14%
Cc1ccoc1C(=O)N1CCCC(CO)(Cc2ccc(F)cc2)C1 (centres undefined)	8%
Nc1c2c(nc3sc4c(c13)CCCCC4)CCCCC2	-1%
COC(=O)c1ccc(COc2ccccc2/C=N/O)o1	9%
Cc1ccc(C(=O)/C=C2/NC(=O)CS2)cc1	6%
Next results follow:
SMILES	VDR inhibitor
COc1ccc(-c2cn3c(n2)sc2cc(C(=O)NCCCN4CCCCCC4)ccc23)cc1	2%
CNC(=O)c1ccc2c(c1)nnn2C	?
CC(C)Cn1c(=O)c2ccccc2n2c(CCC(=O)Nc3ccc(F)c(F)c3)nnc12	-15%
CCC(=O)NC(=S)Nc1ccccc1C(=O)NC1CCCCC1	6%
Cc1cccc(Cn2cc(S(=O)(=O)c3cccc(Cl)c3)c(=O)c3cc(F)c(N4CCOCC4)cc32)c1	17%
CCN(CC)S(=O)(=O)c1ccc(NC(=O)c2ccc(NS(C)(=O)=O)cc2)cc1	7%
COc1cc(NC(=O)CN(c2ccc(C)cc2)S(=O)(=O)c2c(C)noc2C)cc(OC)c1	20%
O=C(NCc1cccc(Cl)c1)C1CCN(S(=O)(=O)c2ccc(F)cc2)CC1	1%
O=C(CCN1C(=O)c2ccccc2S1(=O)=O)Nc1ccc(Cl)cc1	6%
CCOC(=O)C1CCN(C(=S)Nc2ccc(CC)cc2)CC1	7%
O=C(CSc1ccc(-c2ccc(F)cc2)nn1)N1CCOCC1	6%
O=C(Nc1ccnn1C1CCN(C(=O)c2ccc(Cl)cc2)CC1)C1CC1	-3%
CCCc1nc(SCC(=O)Nc2nnc(CC)s2)c2c(=O)n(C)c(=O)n(C)c2n1	11%
O=C(NCc1cccc(C(F)(F)F)c1)C1CCCN(c2cnccn2)C1 (centres undefined)	-17%
O=C(c1ccc2c(c1)OCCO2)C1CCN(C(=O)Nc2ccc(F)cc2)CC1	-2%
COCCn1c(=N)c(S(=O)(=O)c2ccc(F)cc2)cc2c(=O)n3ccccc3nc21	13%
Cn1c(=O)[nH]c(=O)c2c1nc(N1CCCCC1)n2CCCSc1nnnn1-c1ccccc1	-6%
Cc1ccccc1OCC(=O)Nc1ccc(N2CCN(S(C)(=O)=O)CC2)cc1	-5%
CCC(C)NCCOCCOc1ccc(C)cc1Br (centres undefined)	7%
O=C(NC1CCCC1)C(c1ccc(F)cc1)N(C(=O)c1csnn1)c1ccccc1 (centres undefined)	4%
Cn1cc(/C=N\NC(=O)c2cccs2)c2ccccc21	10%
COc1ccc(C(=O)NNC(=O)CSc2nnc(COc3ccccc3OC)n2C)cc1	-9%
Cc1n[nH]c(=O)nc1NCCN(C)C	3%
Cn1c(C(=O)NCCCN2CCCCC2)cc2sccc21	7%
CC1(C)OC(=O)N(CC(=O)Nc2cccc(C(F)(F)F)c2)C1(C)O (centres undefined)	-14%
Fc1ccc(CSc2nc3ncccc3[nH]2)cc1	-5%
COc1ccc(C)cc1NC(=O)C(OC(=O)c1cccc(S(=O)(=O)N(C)c2ccccc2)c1)c1ccccc1 (centres undefined)	-9%
CCOC(=O)c1c(C)oc2nc(C)nc(NCc3ccc(F)cc3)c12	13%
CN(C)C(CNC(=S)Nc1cccc(Cl)c1)c1ccccc1 (centres undefined)	-14%
CCOc1ccc(CNS(=O)(=O)c2c(C(=O)N3CCCC3)c(C)n(C)c2C)cc1OC	-11%
O=C(Oc1cccc2cccnc12)c1ccccc1	-3%
CN(CC(=O)Nc1cccc(F)c1)C(=O)c1ccccc1OCCOc1ccccc1	15%
O=C(c1cccs1)N1CCN(c2ncc(Br)cn2)CC1	-13%
COc1ccc(N2C(=O)C3C(C2=O)C2C=CC3C23CC3)c(OC)c1 (centres undefined)	15%
Cc1ccc(-n2c(C)nc3c(cnn3-c3ccc(F)cc3)c2=O)cc1C	-13%
Cc1c(C(=O)NCCSCc2c(Cl)cccc2Cl)cccc1[N+](=O)[O-]	-13%
CCOc1ccc(NC(=O)COc2ccc3c(c2)CCC3)cc1OC	10%
Cc1ccnc(NC(=O)c2ccc3c(c2)NC(=O)C(C)S3)c1 (centres undefined)	13%
Cc1ccc(C)c(N2CCN(C(=O)c3ccc(NC4=NC5CS(=O)(=O)CC5S4)cc3)CC2)c1 (centres undefined)	-2%
CN(C)c1cc[n+](CC(=O)Nc2ccc(Cl)cc2)cc1	-4%
COc1ccc(Br)cc1CNC(=O)CSc1cc(=O)n(C)c2ccccc12	-16%
O=C(c1cccc(F)c1)N1CCC2(CCN(Cc3ccncc3)CC2)CC1	-11%
CCOC(=O)c1c(NC(=O)Cn2nc(C(F)F)cc2C(F)F)sc(C)c1C	-10%
CN(C)c1ccc(N=Cc2nc(-c3ccccc3)oc2OC(=O)c2cccc(Br)c2)cc1	?
CN(Cc1ccc(Br)cc1)CC(O)COc1cccc(Br)c1 (centres undefined)	-14%
O=C(NCCCN1CCOCC1)c1csc2c1CCCC2	-9%
Cn1c(=O)c2[nH]c(N=NNc3ccccc3F)nc2n(C)c1=O	79µM*
COc1ccc(NC(=S)NCCC2=CCCCC2)cc1OC	5%
C=CCC[C@H](Cc1ccc(F)cc1)C(=O)OC[C@H](Cc1c[nH]c2ccccc12)NC(=O)[C@@H](CC=C)CC(=O)N(CCO)Cc1ccccc1	-14%
O=C(CCN1C(=O)/C(=C/c2cccs2)SC1=S)Nc1ccccc1O	-2%
Cc1cc(C)cc(NC(=S)N2CCC(NC(=O)C3CCCCC3)CC2)c1	-17%
COc1ccc(OC)c(C2C(C(=O)c3ccco3)=C(O)C(=O)N2CC2CCCO2)c1 (centres undefined)	16%
COc1ccc(OC)c(C2=NOC(C(=O)N3CCCc4ccccc43)C2)c1 (centres undefined)	12%
CCc1cccc(C)c1NC(=O)N(C)C1CCCCC1	-4%
COc1cccc(NC(=O)CCc2nc(-c3ccccc3F)no2)c1	26%
Cc1cc2nn(-c3cccc4ccccc34)nc2cc1NC(=O)c1cccs1	-1%
CC1(C)OC1COc1c2ccoc2cc2oc(=O)ccc12 (centres undefined)	-23%
CCOc1ccc(C2=NNC(c3cccnc3)=Nc3ccc(OC)cc32)cc1	38%[activator]
CCOC(=O)C(C)Oc1cccc2c(=O)n(CC(=O)NCc3ccco3)ccc12 (centres undefined)	-5%
O=C(NNc1c2ccccc2nc2ccccc12)c1cccc(O)c1	21%
Remaining list, next part:
SMILES	VDR inhibitor
CCN1CCN(C(c2ccc(C)cc2)c2sc3nc(-c4ccco4)nn3c2O)CC1 (centres undefined)	18%
O=S(=O)(N1CCCCC1)N1CCN(c2ccccc2F)CC1	13%
COc1ccc(CC(=O)Nc2ccc(-c3nc4cc(C)ccc4o3)c(O)c2)cc1OC	21%
OC1CCNC(=S)N1c1ccccc1 (centres undefined)	?

Only part of the results is shown; rates above refer to the full screens.
